Screening results (PubChem)
Six1-Eya2 blk = blocks human Six1 binding to Eya2; activity change, % (test concentration not listed); AID 651725; 360,000 tested, 0.56% active; AlphaScreen GST-Six1/His-Eya2 binding, biochemical; active compounds read low; control for the full effect not named in the record; in the data active = activity change below about -65%; inconclusive = about -30% to -65%; inactive = above about -30%; also: % is scaled to controls: 0 for no effect and ±100 for the full control effect
Target sequence (O00167 whole entry, looked up): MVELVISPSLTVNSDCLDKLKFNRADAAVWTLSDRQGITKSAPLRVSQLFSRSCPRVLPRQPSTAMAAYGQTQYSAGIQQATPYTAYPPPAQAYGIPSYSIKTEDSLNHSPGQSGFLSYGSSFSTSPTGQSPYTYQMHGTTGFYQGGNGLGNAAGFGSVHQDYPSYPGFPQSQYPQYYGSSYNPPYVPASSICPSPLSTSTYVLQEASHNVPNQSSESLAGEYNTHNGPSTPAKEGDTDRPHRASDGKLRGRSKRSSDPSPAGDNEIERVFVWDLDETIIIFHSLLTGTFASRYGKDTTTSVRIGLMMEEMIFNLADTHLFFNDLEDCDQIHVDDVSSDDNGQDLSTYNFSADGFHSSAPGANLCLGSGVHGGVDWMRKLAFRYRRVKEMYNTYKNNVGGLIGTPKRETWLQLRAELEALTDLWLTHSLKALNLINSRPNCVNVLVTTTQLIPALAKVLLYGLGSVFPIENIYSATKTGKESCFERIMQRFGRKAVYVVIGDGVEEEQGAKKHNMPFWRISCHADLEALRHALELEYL
Target sequence (Q15475 whole entry, looked up): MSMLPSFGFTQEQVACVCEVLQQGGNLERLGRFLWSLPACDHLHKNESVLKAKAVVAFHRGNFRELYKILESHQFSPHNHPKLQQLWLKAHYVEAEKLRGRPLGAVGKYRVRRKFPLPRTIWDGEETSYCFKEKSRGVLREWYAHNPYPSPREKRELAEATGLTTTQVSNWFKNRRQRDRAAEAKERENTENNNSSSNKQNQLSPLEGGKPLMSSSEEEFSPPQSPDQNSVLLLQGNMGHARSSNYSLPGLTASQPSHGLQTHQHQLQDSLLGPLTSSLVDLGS
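Homogeneous AlphaScreen proximity assay pairing GST-Six1 with His-tagged Eya2 (added as 5X mix: 250 nM and 500 nM) in 50 mM Tris pH 8.0, 300 mM NaCl, 1 mM TCEP. Glutathione donor and nickel acceptor beads; 1 h, 37 °C, dark.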
D2 ag = activates the human D2 dopamine receptor; activation, % (concentration not given with the values); DiscoveRx PathHunter D2 beta-arrestin, luminescence, 90 min; 100% = 57 uM dopamine signal; 360,000 tested, 0.084% active; P14416; in the data active = activation above about 40%; inconclusive = about 15% to 40%; inactive = below about 15%; also: compound concentration not given in the record; the text of the record calls up to 30% inactive
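DiscoveRx PathHunter D2 beta-arrestin cells (2,100/well) attached overnight, then compound-stimulated 90 min at 37 C in HBSS/10 mM HEPES/0.1% Tween-20 buffer; beta-galactosidase complementation read by luminescence after 1 h at ambient temperature. Dopamine 57 uM final (EC100) as control.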
TRPV1 PAM = potentiators of human vanilloid receptor 1 (TRPV1); TRPV1-expressing cells, Fluo-8 calcium influx, capsaicin EC20 potentiation; host cell line not named in the record; control for the full effect not named in the record; potentiation, % at 8.33 µM; 320,000 tested, 0.02% active; AID 540277; active means potentiation above 80%; inconclusive means 30% to 80%; inactive means below 30%; also: 0% is about no effect
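Fluo-8 calcium influx in TRPV1-expressing cells, kinetic read (ex 480/em 520 nm). Compound added and read 3 min for agonist activity, followed by capsaicin at EC20 final and 2 min further read for enhancement.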
CtBP-E1A blk = blocks the CtBP interaction with E1A; AlphaScreen GST-E1A/His-CtBP binding, 1536-well; active compounds read low; control for the full effect not named in the record; activity change, % (test concentration not listed); 340,000 tested, 0.49% active; AID 651724; in the data active means activity change below about -65%; inconclusive means about -30% to -65%; inactive means above about -30%; also: % is scaled to controls: 0 for no effect and ±100 for the full control effect
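GST-E1A and His-tagged CtBP (125 nM each as 5X stock) were preincubated with pin-transferred compound for 2 h at 37 °C in the dark, then glutathione donor and nickel acceptor beads were added for 1 h before AlphaScreen reading.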
Sfp PPTase inh = inhibitors of Bacillus subtilis Sfp phosphopantetheinyl transferase. Biochemical Sfp PPTase activity, qHTS. Potency, µM, for inactives: max response, negative = inhibition, most hits filed as inhibitors. 310,000 tested, 3.5% active; active = well fitted inhibition curve with a large enough effect; inconclusive = small, poorly fitted or top-dose-only effect, or another doubt; inactive = no such curve, though single readings can be large or run the other way;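 also: the enzyme is Sfp with the accession as filed and its product quenches rhodamine fluorescence; potency is read from the fitted curve at half-maximal effect; 0% = enzyme reaction without inhibitor and -100% = no enzyme wells; top concentration of the series not given in the record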
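With Hepes-Na pH 7.6 buffer containing 10 mM MgCl2, Sfp (15 nM) modified BHQ-2-YbbR (12.5 uM) using rhodamine-CoA (5 uM). Two reads 30 minutes apart at 525/598 nm yielded each well's rate.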
D2 potentiator = human D2 receptor positive allosteric modulation; AID 624464; potentiation, % (test concentration not listed); 360,000 tested, 0.23% active; DiscoveRx D2 beta-arrestin cells, luminescence, 90 min; 100% = 57 uM dopamine signal; P14416; active = potentiation of 50% or more; inconclusive = 30% to 50%; inactive = 30% or less;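 also: compound concentration not given in the record; tested on top of an EC20 dose of dopamine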
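PathHunter D2 cells, attached overnight at 37 deg C, received compound in DMSO plus dopamine at EC20 (50 nM final) for 90 min at 37 deg C. Beta-arrestin recruitment was read as luminescence after 1 h with detection reagent at ambient temperature.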
PINK1 modulator = modulators of PINK1 expression; PINK1 immunofluorescence, high-content cytometry, 24 h; Potency, µM (top dose mostly 76.6 µM), without a hit: at the highest dose activation (PINK1 increase), most hits filed as activators; 410,000 tested, 0.2% active; AID 624263; active = well fitted activation curve with a large enough effect; inconclusive = small, poorly fitted or top-dose-only effect; inactive = flat fitted curve, though single readings scatter; cell line not stated here;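 also: potency is read from the fitted curve at half-maximal effect; % of control where 0% means no effect; nearly all actives have a fitted effect of over 65% in size; a mitochondrial uncoupler was the plate control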
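A stable cell line was treated with compounds at 5 concentrations for 24 hours, with CCCP as control. PINK1 levels and mitochondrial localization were measured by immunofluorescence with mitochondrial, cell and nuclear markers after fixation, read by laser-scanning cytometry.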
* hit, by the source's call; ? = inconclusive; . = no result given; [ ] = dose if it differs, or a comment.

SMILES	Six1-Eya2 blk	D2 ag	TRPV1 PAM	CtBP-E1A blk	Sfp PPTase inh	D2 potentiator	PINK1 modulator
O=C(CN1CCC(O)(c2ccc3c(c2)OCO3)CC1)NC1CCCCC1	-4	-5.0	-3	-2	22%	-8	-0.6%
COc1ccccc1CNc1nc(Oc2cccc(F)c2)c2sccc2n1	4	6.2	.	9	.	-8	9.9%
CC(c1ccccc1)n1c(-c2ccccc2F)n[nH]c1=S (stereo not drawn)	0	2.2	?	-5	-6%	-3	0.5%
O=c1c2ccccc2ncn1CCCSc1ccc(Cl)cc1	0	-4.8	28	7	-7%	-10	0.2%
C[C@H](CO)N1C[C@H](C)[C@@H](CN(C)CC2CCCCC2)Oc2c(NC(=O)C3CC3)cccc2C1=O	0	-7.0	.	-4	.	-6	4.1%
Cc1ccc(-n2nc(C(=O)N/N=C/c3cccc(C(F)(F)F)c3)c3ccccc3c2=O)cc1C	-12	-1.1	-5	-7	1%	-10	?
CCCCn1c(N2CCCC2)nc2c1c(=O)[nH]c(=O)n2C	6	-1.2	18	2	20%	-1	-0.2%
COc1ccc(CCNC(=O)CC(C)(C)CC2=NS(=O)(=O)c3ccccc3N2)cc1OC	2	-7.5	4	-8	7%	-13	0.5%
CCOc1ccc(/C=C2/Sc3ccc(C(=O)NCC4CCCO4)cc3N(C)C2=O)cc1OC (stereo not drawn)	-4	13	0	-4	?	7	0.4%
CC(C)NS(=O)(=O)c1ccc(OCC(=O)N2CCCC2)cc1	1	0.3	2	5	-5%	-17	2.7%[38.3 µM]

The closing three compounds of the section before are carried over, then new ones follow.
SMILES	Six1-Eya2 blk	D2 ag	TRPV1 PAM	CtBP-E1A blk	Sfp PPTase inh	D2 potentiator	PINK1 modulator
COc1ccc(CCNC(=O)CC(C)(C)CC2=NS(=O)(=O)c3ccccc3N2)cc1OC	2	-7.5	4	-8	7%	-13	0.5%
CCOc1ccc(/C=C2/Sc3ccc(C(=O)NCC4CCCO4)cc3N(C)C2=O)cc1OC (stereo not drawn)	-4	13	0	-4	?	7	0.4%
CC(C)NS(=O)(=O)c1ccc(OCC(=O)N2CCCC2)cc1	1	0.3	2	5	-5%	-17	2.7%[38.3 µM]
Cc1cc(C)nc(-n2nc(C)cc2NC(=O)CNC2CCCCC2)n1	-3	-6.0	-7	-1	-7%	-2	-2.5%
O=C(Cc1ccccc1)Nn1cnc2ccccc21	9	3.6	25	3	11%	3	-4.6%[38.3 µM]
CC1(C(=O)NS(=O)(=O)c2ccccc2)CCN1C(=O)C1(c2ccccc2)CCCC1 (stereo not drawn)	6	-3.1	.	4	.	-1	0.7%
COc1ccc(C(=O)Nn2cnnc2)cc1OC	-2	-3.9	-9	0	-2%	-1	1.9%
CN(CCN1CCOCC1)C(=O)C1CCC(=O)N(Cc2ccc(Cl)cc2)C1 (stereo not drawn)	3	-1.6	.	-10	.	-12	-0.3%
COc1ccc(-n2cnc(=S)[nH]c2=S)cc1	2	-8.1	.	-1	.	-14	-1.8%
NC(=O)c1ccc(NC(=O)COC(=O)c2ccc3c(c2)OCCO3)cc1	-1	2.0	-6	-1	7%	1	0.5%
O=C(c1ccccc1)C(Nc1cccc([N+](=O)[O-])c1)c1ccccc1 (stereo not drawn)	-2	-0.9	.	0	.	-8	4.1%
C[N+](C)(C)CCCN(Cc1ccc2c(c1)OCO2)C(=O)NC1CCCCC1	-1	14	-8	.	11%	-4	1.3%
CC(=O)Nc1sc2c(c1-c1nc3ccccc3s1)CCN(C(C)C)C2	4	-6.4	-6	1	-5%	-18	-2.1%
Cc1nn(S(=O)(=O)c2cccs2)c(C)c1Sc1ccc([N+](=O)[O-])cc1	-17	-1.7	9	-16	13%	-12	0.3%
CCCn1cc(CN2CCC(N3CCC(C(=O)N4CCOCC4)CC3)CC2)c(C)n1	-5	-1.4	1	3	22%	-2	-0.8%
CSc1ccc(CNc2cccc3ccccc23)cc1	-3	2.2	2	10	4%	0	.
Cc1ccc(NC2=NC(c3ccc(O)cc3)n3c(nc(C)cc3=O)N2)cc1 (stereo not drawn)	-1	-1.8	?	4	12%	-11	2.4%
Cc1cccc(N2CCN(S(=O)(=O)c3c(C)[nH]c(C)c3C(=O)N3CCCC3)CC2)c1C	-6	13	9	0	-2%	-10	-1.9%
c1ccc2c(-c3ccc4nncn4c3)cncc2c1	12	6.2	.	-4	.	5	-0.3%
CCOC(=O)[C@@H]1[C@H]2COc3ccccc3[C@H]2N2C(=O)N(c3cccc(Cl)c3)C(=O)[C@]12C	-3	-3.5	.	-2	.	-14	0.3%
C[C@@H](NC(=O)C1(c2ccccc2)CCN(C(=O)OC(C)(C)C)CC1)C(=O)N[C@@H](Cc1ccccc1)C(=O)O	1	-3.6	4	8	11%	-1	1.5%
CC(C)OCCCn1c(=NC(=O)c2ccncc2)c(C#N)cc2c(=O)n3ccccc3nc21	4	3.2	-1	12	10%	-5	11%[38.3 µM]
S=C(NCCCn1ccnc1)Nc1ccc(Cl)cc1Cl	-2	-1.2	-7	-2	10%	-6	-0.3%
COc1ccc(C(=O)NCC(=O)N2CCN(C(=O)c3ccco3)CC2)cc1OC	-7	7.0	2	9	.	-21	0.3%
COc1ccc(NC(=O)c2cccc3c2C(=O)c2ccc(-c4ccc(F)cc4OCc4ccccc4)cc2S3(=O)=O)cc1	3	-1.1	.	-1	.	-9	?
Cc1ccc(-c2cc(C(=O)OCC(=O)N(C)C3CCS(=O)(=O)C3)c3ccccc3n2)o1 (stereo not drawn)	0	-3.1	-13	0	20µM*	-37	0.2%
O=C(CC(=O)c1ccccc1)Nc1cc([N+](=O)[O-])ccc1Cl	-23	-3.4	5	3	-4%	-40	7.1%
CCCc1sc(N/N=C/c2ccccn2)nc1-c1ccc(Br)cc1	-14	-0.4	4	-16	1%	1	?
COc1ccc2c(c1)[C@H]1[C@H](CO2)[C@H](c2ccccc2)[C@]2(C)C(=O)Nc3ccc(Cl)cc3C(=O)N12	-19	0.6	.	0	.	-40	4.2%
CN1C(=O)N(CC(=O)N2CCN(S(=O)(=O)Cc3ccccc3)CC2)C(=O)C12CCCCC2	1	-1.2	-2	3	.	-6	0.4%
Nc1cc(-c2cccc([N+](=O)[O-])c2)[nH]n1	14	-4.7	4	-5	5%	-3	-0.4%
CC(=O)Nc1ccc(S(=O)(=O)Nc2nc(C)nc3sc(C)c(C)c23)cc1	-14	-1.8	.	-4	.	-1	1.4%
CN1/C(=C\C(=O)Nc2cccc(Cl)c2)C(C)(C)c2ccccc21	0	0.6	-6	-6	18%	-10	?
COc1ccc(/C(C)=N/NC(=O)c2cc(C)[nH]n2)c(OC)c1	-3	8.4	-4	-10	7%	-12	-0.8%
O=C(C1CC1)N1N=C(c2ccc(Cl)cc2)CC1(O)C(F)(F)F (stereo not drawn)	-19	-4.8	-3	-4	-2%	-13	7.8%
CN(CC(=O)Nc1ccc(Cl)c(C(F)(F)F)c1)C(=O)c1ccc(OCC2CCCO2)cc1 (stereo not drawn)	3	-0.2	1	-20	.	0	?
NC(=O)c1ccsc1NC(=O)CSc1nncs1	-5	-6.8	-1	0	.	-13	-1.1%
COc1ccccc1CNC(=O)CSc1ccc(-c2ccncc2)nn1	-2	1.9	9	.	14%	-3	-0.1%
O=C(CNC(=S)NC(=O)c1ccccc1Br)c1ccccc1	4	-3.0	2	-20	?	-8	8.7%
CCOc1ccc(NC(=O)CN(C)CC(=O)Nc2ccccc2SC)cc1OCC	-9	-4.8	-1	-13	-11%	-25	1.0%
CC(c1ccco1)N(C(=O)COc1ccc(Cl)cc1)c1ccccn1 (stereo not drawn)	4	0.5	-7	-8	6%	-4	-0.3%
CCCc1nc2c(nnn2Cc2ccccc2Cl)c(=O)[nH]1	9	-4.3	-1	-8	6%	5	0.4%
O=C(Cc1nn[nH]n1)NCCC1=CCCCC1	-7	2.1	8	-2	2%	-21	0.8%
CC(C)C(NS(=O)(=O)c1ccccc1)C(=O)N1CCN(C(=O)c2ccco2)CC1 (stereo not drawn)	4	-0.6	6	2	14%	-1	1.7%
Cc1ccccc1NC(=S)NCc1cccs1	6	-0.1	1	3	2%	7	0.2%
Cc1ccc(Cn2c(C)c(C(=O)NCc3cccs3)sc2=O)cc1	0	4.4	.	3	.	-4	0.3%
O=C(NC1CC2CCC(C1)N2Cc1ccco1)c1ccccc1 (stereo not drawn)	3	-1.4	8	1	12%	-37	-0.7%
CCOC(=O)N1CCN(c2ncnc3nc[nH]c23)CC1	-5	1.9	6	3	33%[activator]	-3	1.3%
CC(=O)CSc1ccc(C(=O)O)cn1	2	-0.3	2	0	-2%	-5	-0.6%
CN(C)C1=NC[C@H](Cc2ccccc2)N1CC1CCCC1	4	-4.0	-6	-13	.	-8	-0.5%
CCSc1nnc([C@@H](NC(=O)OC(C)(C)C)C(C)C)o1	-12	3.5	-3	-9	25%	0	-1.3%
CC1(C(=O)Nc2ccccc2F)CCN1C(=O)Cc1cc(F)ccc1F (stereo not drawn)	2	-3.7	.	7	.	-7	0.6%
CCn1cc(C(=O)NCCC(=O)NCCO)c(=O)c2cc3c(cc21)OCO3	3	2.1	11	-11	10%	-5	-1.4%
Additional records
SMILES	Six1-Eya2 blk	D2 ag	TRPV1 PAM	CtBP-E1A blk	Sfp PPTase inh	D2 potentiator	PINK1 modulator
COc1ccc(C(=O)/C=C/c2cn(CN3CCN(C)CC3)c3ccccc23)cc1	0	-3.9	-4	5	-30%	-12	?
CCO[C@@H]1OC(C(=O)NCc2ccccc2)=C[C@H](c2ccc3c(c2)OCO3)[C@H]1CCCO	2	-1.7	24	6	16%	-16	0.4%
COCCNC(=O)C(c1ccc(Cl)cc1)N(CCOC)C(=O)CCC(=O)Nc1nccs1 (stereo not drawn)	7	-5.8	2	-4	6%	-9	3.6%
CSc1cccc(CN2CCN(CCC(C)C)C(CCO)C2)c1 (stereo not drawn)	1	0.0	1	1	0%	-23	1.8%
COC(=O)c1ccccc1NC(=S)NC(=O)c1ccc2c(c1)OCO2	?	-2.7	-15	9	-14%	-4	?
CCOC(=O)C1(C)CCCCCN1C(=O)c1ccccc1F (stereo not drawn)	2	-5.4	.	3	.	-8	3.0%
Cc1cc(OC(C)C)nc(NCc2ccccc2)n1	7	-0.8	5	29	-1%	-11	?

Laid out differently: two of the compounds above
compound,Six1-Eya2 blk,D2 ag,TRPV1 PAM,CtBP-E1A blk,Sfp PPTase inh,D2 potentiator,PINK1 modulator
O=C(C1CC1)N1N=C(c2ccc(Cl)cc2)CC1(O)C(F)(F)F (stereo not drawn),-19,-4.8,-3,-4,-2%,-13,7.8%
CN(CC(=O)Nc1ccc(Cl)c(C(F)(F)F)c1)C(=O)c1ccc(OCC2CCCO2)cc1 (stereo not drawn),3,-0.2,1,-20,.,0,?
